Screens from PubChem.
Tgondii IFNg: inhibitors of Toxoplasma gondii growth with IFN-gamma; Toxoplasma gondii growth in IFN-gamma-treated host cells; hits give low values; reference of the scale not given here; activity change, negative = inhibition, %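 (about 20 µM by stock and volumes)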; hit rate 3.8% among 69,000;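 active means below -70%; inconclusive means fit judged invalid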;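 further: host cells are HeLa cells infected with Toxoplasma gondii; parasite growth read as luciferase light; one replicate is shown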
An asterisk follows results filed as active; ? = inconclusive; & = joins results of further samples. An excerpt; count on the stated rates, not on these rows.

SMILES	Tgondii IFNg
O=S(=O)(c1ccccc1)N1C[C@H]2[C@@H](c3ccccc31)[C@@H](CO)N2Cc1ccccn1	1.1
Cc1ccccc1CN(CCO)Cc1ccco1	52.4
COc1cccc(-c2cc(C(=O)NCc3cc(N(C)C)nc(-c4cccnc4)n3)no2)c1	-67.9
Cc1ccc(N2CCC3(CC2)CN(Cc2cccnc2)CCO3)nn1	-5.8
CCOC(=O)Cc1ccc(NC(=O)Nc2ccc(-c3nc(-c4ccc(C)cc4C)co3)cc2)cc1	-24.0
OC[C@H]1[C@H](c2ccccc2)C2(CN(Cc3ccccc3F)C2)N1Cc1ccccc1F	5.8
CCOc1ncccc1C(=O)N1CCCC2(CNC(=O)O2)C1 (stereo not given)	4.7
Fc1ccc2nc3c(nc2c1)c1ccccc1n3Cc1csc(-c2ccc(Cl)cc2)n1	-2.9
Cc1onc(-c2c(F)cccc2Cl)c1C(=O)ON=C1C2CC3CC(C2)CC1C3	-85.5*
CCC(=O)N1CC2(C1)CN(C(=O)c1cnccn1)[C@@H](CO)c1c2c2ccc(OC)cc2n1C	-7.5
CCN(CC1CCOCC1)C(=O)c1cnccc1C	55.7
CC(=O)N1CCC(C(=O)NCc2ccccc2)(N(C(=O)c2ccc(C)cc2)c2ccc(F)cc2)CC1	-9.7
CN(Cc1ncccc1C(=O)O)Cc1n[nH]c2c1CCCC2	-59.8
Cn1cnc(S(=O)(=O)N2[C@@H]3CNC[C@H]2C3c2ccc(/C=C/c3ccccc3)cc2)c1 (stereo not given in full)	22.0&36.6
O=C(O)CCC(=O)N1CC(=O)Nc2ccccc21	5.6
Cc1ccccc1SCC(=O)N1CCC2(CCNCC2)CC1	-2.1
CCOc1ccc(NC(=O)CC(=O)N2CCC3(CCCN(C)C3=O)C2)cc1 (stereo not given)	-3.3
Cc1ccsc1CN(C/C=C/c1ccco1)Cc1ccccn1	89.6
CCN1C(=O)CCc2cc(NC(=O)Cc3ccc(F)cc3)ccc21	113.8
COc1ccc(C(=O)N(Cc2ccccc2F)C2(C(=O)NCc3ccccc3)CCN(C(C)=O)CC2)cc1	-0.8

For convenience, part of the list above.
SMILES	Tgondii IFNg
O=S(=O)(c1ccccc1)N1C[C@H]2[C@@H](c3ccccc31)[C@@H](CO)N2Cc1ccccn1	1.1
Cc1ccccc1CN(CCO)Cc1ccco1	52.4
COc1cccc(-c2cc(C(=O)NCc3cc(N(C)C)nc(-c4cccnc4)n3)no2)c1	-67.9
Cc1ccc(N2CCC3(CC2)CN(Cc2cccnc2)CCO3)nn1	-5.8
CCOC(=O)Cc1ccc(NC(=O)Nc2ccc(-c3nc(-c4ccc(C)cc4C)co3)cc2)cc1	-24.0
OC[C@H]1[C@H](c2ccccc2)C2(CN(Cc3ccccc3F)C2)N1Cc1ccccc1F	5.8
CCOc1ncccc1C(=O)N1CCCC2(CNC(=O)O2)C1 (stereo not given)	4.7
Fc1ccc2nc3c(nc2c1)c1ccccc1n3Cc1csc(-c2ccc(Cl)cc2)n1	-2.9
Cc1onc(-c2c(F)cccc2Cl)c1C(=O)ON=C1C2CC3CC(C2)CC1C3	-85.5*
CCC(=O)N1CC2(C1)CN(C(=O)c1cnccn1)[C@@H](CO)c1c2c2ccc(OC)cc2n1C	-7.5
CCN(CC1CCOCC1)C(=O)c1cnccc1C	55.7
CC(=O)N1CCC(C(=O)NCc2ccccc2)(N(C(=O)c2ccc(C)cc2)c2ccc(F)cc2)CC1	-9.7
CN(Cc1ncccc1C(=O)O)Cc1n[nH]c2c1CCCC2	-59.8
Cn1cnc(S(=O)(=O)N2[C@@H]3CNC[C@H]2C3c2ccc(/C=C/c3ccccc3)cc2)c1 (stereo not given in full)	22.0&36.6
O=C(O)CCC(=O)N1CC(=O)Nc2ccccc21	5.6
Cc1ccccc1SCC(=O)N1CCC2(CCNCC2)CC1	-2.1
CCOc1ccc(NC(=O)CC(=O)N2CCC3(CCCN(C)C3=O)C2)cc1 (stereo not given)	-3.3
Cc1ccsc1CN(C/C=C/c1ccco1)Cc1ccccn1	89.6

Next section
SMILES	Tgondii IFNg
O=C(C[C@@H]1CC[C@@H]2[C@H](COC[C@H](O)CN2Cc2cc(F)ccc2F)O1)NCc1ccc(Oc2ccccc2)cc1	-44.9
Cc1ccc(C(=O)Nc2ccccc2C(=O)NC(C(=O)O)C(C)C)cc1 (stereo not given)	71.7
Cc1ccc(F)cc1CN1CCC2(CC1)CC(NC(=O)C1CC1)C2	1.7
COCCC(=O)Nc1ccccc1C(=O)NCc1cccc(C)c1	-32.3
O=C(NC1CCS(=O)(=O)C1)C1(Cc2ccccc2-c2ccc(F)c(F)c2)CCOCC1 (stereo not given)	3.9
O=C1CC2(CCN(Cc3ccc(OCc4ccccn4)cc3)CC2)CN1	-4.6
CCN(CC)S(=O)(=O)c1ccc2c(c1)N(Cc1nc(-c3ccccc3)oc1C)C(=O)CS2	-79.5*
O=C(c1csc(-c2cccnc2)n1)N1CCOC(c2ccc(Cl)cc2)C1 (stereo not given)	-28.7
O=C(C1CCOCC1)N1CC(=O)N2[C@H](CO)[C@H](c3ccc(C#CC4CCCCC4)cc3)[C@H]2C1	19.2
CCCN(Cc1nccn1C)C(=O)c1cc(CC(C)C)nn1C	65.9
CN(C)CCNC(=O)c1c2c(NCc3cccnc3)ncnc2n2ccccc12	-15.3
Cc1cccnc1N1CCN(C(=O)c2cn(CC3CCCNC3)nn2)CC1 (stereo not given)	1.9
CCn1nnc2c1C(COCC1CC1)CN(Cc1cccnc1)C2 (stereo not given)	1.1
CO[C@@H]1CCN(C(=O)c2ccc[nH]2)[C@H]1Cc1cnn(C)c1	-41.7
C[C@@H]1O[C@@H](OC[C@H]2O[C@@H](Oc3c(-c4ccc(O)c(O)c4)oc4cc(O)cc(O)c4c3=O)[C@H](O)[C@@H](O)[C@@H]2O)[C@H](O)[C@H](O)[C@H]1O	7.4&11.0
CC(C)[C@H]1COCn2nncc2CCCC(=O)N1	-48.6
CCn1ccn2c(-c3ccccc3)nc(C)c2c1=O	11.7
CC(C)CC#Cc1ccc([C@H]2[C@H](CO)N3C(=O)CN(C(=O)c4cccc(F)c4)C[C@@H]23)cc1	-34.2
CCc1noc(-c2cc(=O)n(CC(=O)NCc3ccccc3OC)c3ccccc23)n1	13.7
COc1ccccc1-n1c(=O)n(Cc2nc(-c3ccccc3C)oc2C)c(=O)c2cccnc21	9.2
COc1cc(/C=C(/C#N)C(N)=O)cc(CSc2nc3ccccc3s2)c1O	15.2
CC(C)c1cc2cccnc2n1CCc1noc(-c2ccc(C(F)(F)F)cc2)n1	66.2
CCOC(=O)c1cnc(C(F)(F)F)nc1Nc1ccccc1	-28.5
COCCNC(=O)C[C@@H]1CC[C@H]2[C@@H](COC[C@@H](O)CN2Cc2ccc(Cl)c(Cl)c2)O1	7.9
Cc1nnc(CN2CCCC(N3CCCC3=O)C2)s1 (stereo not given)	-1.0
O=C([C@@H]1[C@@H](CO)[C@@H]2Cn3c(ccc(C4=CCCC4)c3=O)[C@H]1N2C(=O)c1cccnc1)N1CCOCC1	-2.2
Cc1nn(-c2ccccc2)nc1CNC(=O)c1cccs1	23.8
C/C=C/c1ccc([C@@H]2[C@H](CO)N(CCC(F)(F)F)C23CN(C(=O)CC2CC2)C3)cc1	76.7
COCc1cnc2n1CCN(C(=O)C1CCOCC1)C2C (stereo not given)	-1.2
O=C1OC(c2ccccc2)=C/C1=C/c1cccs1	11.4
CC(C)N1CCC2(CC1)CC(NCC1CCOC1)c1ccccc1O2 (stereo not given)	-13.9
O=C(NCc1ccccn1)C1CCCN(C2CCN(C(=O)c3ccoc3)CC2)C1 (stereo not given)	-2.5
CN(C)CCOC1=Cc2ccccc2Sc2ccc(Cl)cc21	?
COC(=O)C(Cc1c[nH]c2ccccc12)NC(=O)c1c(Cl)cccc1Cl (stereo not given)	29.4
Cn1cc(CCNC(=O)c2cc(=O)n(C)c3ccccc23)c2cc(F)ccc21	34.2
CCC(=O)N1[C@H](CO)[C@H](c2ccc(-c3cncnc3)cc2)[C@@H]1CN(C)C(C)=O	4.7
CCCC(=O)Nc1cccc(C(=O)N(C)CC(C)N2CCOCC2)c1 (stereo not given)	5.3
Cc1ccc(S(=O)(=O)NCC[C@H]2CC[C@@H](NC(=O)c3cccnc3)[C@H](CO)O2)cc1	19.6
c1ccc(N2CCOCC3(CCCN(Cc4ccncc4)C3)C2)nc1 (stereo not given)	2.5
Cc1cccc(CN2CCC3(CCN(S(=O)(=O)C4CC4)C3)C2=O)c1 (stereo not given)	-4.6
N[C@@]1(C(=O)O)CS(=O)(=O)[C@H]2[C@H](C(=O)O)[C@H]21	25.9
CC(C)NC(=O)[C@H]1C[C@@H]2CN(C(=O)NCCc3ccccc3)C[C@H]1O2	-20.7
Cc1noc(C)c1Cn1nc(C2CCCNC2)n(-c2ccccc2)c1=O (stereo not given)	-2.6
Cc1ccc(Nc2nc(C(=O)NC3CCCC3)nc3ccccc23)cc1	-35.5
COc1ccc(CCNC(=O)Cc2ccccc2)cc1OC	-48.1
CCC(=O)Nc1ccc(OCC(=O)N2C[C@]3(C)C[C@H]2CC(C)(C)C3)cc1	10.3
COc1ccc(S(=O)(=O)N2CCC3(CC2)Nc2ccccc2-n2cccc23)cc1	6.3
O=C(NCc1ccccc1F)c1c(O)c2cccnc2n(-c2cccc(F)c2)c1=O	-101.7*
COc1nn(C)c2c1CCCN(S(=O)(=O)c1cccc(C)c1)C2	-2.4
CN1C(=O)OC(C)(C)C1=O	10.5
CN1C(=O)CCc2cc(C(=O)NCC3CCCO3)ccc21 (stereo not given)	5.2
Fc1ccc(CN2CCO[C@H]3[C@H]2CC[C@H]3OCCCn2cccn2)cc1	-94.2*
Cc1oc(-c2ccc(NC(=O)Cc3ccsc3)cc2)nc1Cn1cccn1	-61.8
CC1=NOC(C)(CNC(=O)c2cc(CC(C)C)nn2C)C1 (stereo not given)	3.8
COCC(=O)N1[C@H](C#N)[C@H](c2ccccc2-c2cccc(C)c2)[C@H]1CO	17.7
CCOc1ccccc1-c1nc(Cn2c(=O)c3c(C)cc(C)nc3n(C)c2=O)c(C)o1	3.5
CCN1C(=O)c2cccnc2Sc2cc(CNC(=O)c3cccc4[nH]ccc34)ccc21	85.3
COc1cccc(-n2cc(CN(C)Cc3ccsc3)cn2)c1	19.3
Cc1ccc(S(=O)(=O)N2CCn3nnc(COc4cccnc4)c3C2)cc1	0.6
COc1ccc(Cl)cc1NC(=O)c1nc(Nc2ccccc2)c2ccccc2n1	83.7
Carrying on.
SMILES	Tgondii IFNg
CN(C)C(=O)N1CCN(C)C(c2nnc3ccc(C(=O)NCCc4ccccn4)cn23)C1 (stereo not given)	-13.3
Cc1noc(C)c1C1CCCN1C(=O)c1cc2n(n1)CCCN(C)C2 (stereo not given)	-46.4
C[C@@H]1CN([C@@H](C)CO)C(=O)c2cc(NC(=O)CCC(F)(F)F)ccc2O[C@@H](C)CCCCO[C@H]1CN(C)C(=O)c1ccncc1	-34.9
CC(C)C(=O)N1CCCc2cc(C(O)CN3CCC(COc4ccccn4)CC3)ccc21 (stereo not given)	2.2
Cc1nc(N2CCC(NC3CCCc4ccccc43)CC2)nc2ccc(F)cc12 (stereo not given)	17.9
O=C(Cc1noc2ccccc12)N1CCCC(c2ccn[nH]2)C1 (stereo not given)	-17.5
Cn1nccc1-c1cc(C(=O)Nc2ccc3c(c2)OCC(=O)N3)c2ccccc2n1	-20.5
COC(C)c1ccc(-c2cc(C(=O)O)cc(S(=O)(=O)N3CCCC3)c2)cc1 (stereo not given)	9.2
Cc1ncc(-c2cc(C)on2)c(C2CCCNC2)n1 (stereo not given)	-6.7
CCCc1n[nH]c(=O)n1Cc1ccccc1F	4.5
O=C(c1ccc(-c2ccn[nH]2)cc1)N1C[C@@H]2[C@H](C1)[C@H]1CC[C@@H]2O1	5.9
O=C(O)c1cc(Br)cc(S(=O)(=O)N2CCSCC2)c1	6.8
CC(C)(C)c1ccc2cc(C#N)c(C#N)cc2c1	-80.0*
COc1cccc(NC(=O)N2CC(=O)N3[C@H](CO)[C@H](c4ccc(C#CCC5CCCC5)cc4)[C@@H]3C2)c1	-27.5
COCc1ncc(CN2CCN(C(=O)c3ccc(OC)cc3)CC2)cn1	4.5
COc1ccc2c(c1)OC(C)CN(CC(=O)NCC(c1ccncc1)N1CCOCC1)C2 (stereo not given)	7.2
COc1ccccc1-c1noc(CCC(=O)NC[C@H]2C[C@H]3C=C[C@H]2C32CC2)n1	-26.0
CC(C)[C@@H](C)n1c(CCc2ccccc2)n[nH]c1=O	-8.3
Cc1c(S(=O)(=O)N2CCCc3ccccc32)cnn1-c1ccccc1	34.6
Cc1nc(CCNC(=O)C2CCN(S(=O)(=O)c3ccc(Cl)cc3)CC2)cs1	12.4
Cc1ccc(OCC(=O)N2CCOCC2c2csc(C)n2)cc1 (stereo not given)	7.1
COc1cccc2c1OCC(C(=O)O)C2 (stereo not given)	-17.6
Cc1ccccc1-c1nc2cnccn2c1NCCC(=O)N1CCCC(C)C1 (stereo not given)	166.2
Cc1[nH]cnc1-c1nccn1CC(C)Oc1cccnc1 (stereo not given)	1.3
CCC(=O)Nc1ccc(-c2nc(Cn3cccn3)c(C)o2)cc1	61.8
COC(=O)[C@@H]1C[C@H](NC(=O)Cc2ccc(OC)c(C)c2)CN1C	5.6
O=S(=O)(N1CCCC1)N1CCC(O)(c2ccccc2)C2CCCCC21 (stereo not given)	6.6
Cc1ccc(N2CCC3(CC2)NC(=O)CC3c2cnn(C)c2)nn1 (stereo not given)	13.2
CCS(=O)(=O)N1[C@H](C#N)[C@@H](c2ccc(C#Cc3ccccc3F)cc2)[C@@H]1CO	-2.5
Cc1cc(C)nc(NCCC(=O)N2CCc3cc(Cl)ccc32)n1	3.3
CCN(CC)CCNC(=O)c1ccc(-c2nc(CN3CCc4ccccc43)c(C)o2)cc1	-63.4
CCCCNC(=O)N1CCC2(CC1)COCCN(c1ncccn1)C2	5.7
COCCn1c2c(ccc1=O)CC(NC(=O)Cc1cccs1)CC2 (stereo not given)	25.7
CSc1cccc(NC(=O)c2nnn(Cc3nc(-c4cccc(Cl)c4)oc3C)c2C)c1	87.5
COCCCN1CCCC12CCN(C(=O)COC)CC2	219.8
COc1ccc(-c2ncnc3c(C)csc23)c(OC)c1	-55.8
CCN(CCc1nc2ccc(OC)cc2[nH]1)C(=O)c1cc(C)nc(C)n1	-6.1
